NPR1 antag – Natriuretic polypeptide receptor (hNpr1) antagonism - Primary qHTS; Atrial natriuretic peptide receptor 1 (Homo sapiens), P16066; HEK293 hNpr1 GloSensor cGMP, ANP-stimulated luminescence; Potency, µM (doses to about 46.3 µM), inactives show at the highest dose activity change, negative = inhibition, usual class: inhibitors; actives 1.6% (n = 76,000); AID 1347048, 2019; active = well fitted inhibition curve with a large enough effect; inconclusive = small, poorly fitted or top-dose-only effect; inactive = no such curve, though single readings can be large or run the other way;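 also: nearly all actives have a fitted effect of over 60% in size; nearly all hits also lower the signal before the agonist is added; a reference antagonist and vehicle were the controls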
Target sequence (P16066 whole entry, looked up): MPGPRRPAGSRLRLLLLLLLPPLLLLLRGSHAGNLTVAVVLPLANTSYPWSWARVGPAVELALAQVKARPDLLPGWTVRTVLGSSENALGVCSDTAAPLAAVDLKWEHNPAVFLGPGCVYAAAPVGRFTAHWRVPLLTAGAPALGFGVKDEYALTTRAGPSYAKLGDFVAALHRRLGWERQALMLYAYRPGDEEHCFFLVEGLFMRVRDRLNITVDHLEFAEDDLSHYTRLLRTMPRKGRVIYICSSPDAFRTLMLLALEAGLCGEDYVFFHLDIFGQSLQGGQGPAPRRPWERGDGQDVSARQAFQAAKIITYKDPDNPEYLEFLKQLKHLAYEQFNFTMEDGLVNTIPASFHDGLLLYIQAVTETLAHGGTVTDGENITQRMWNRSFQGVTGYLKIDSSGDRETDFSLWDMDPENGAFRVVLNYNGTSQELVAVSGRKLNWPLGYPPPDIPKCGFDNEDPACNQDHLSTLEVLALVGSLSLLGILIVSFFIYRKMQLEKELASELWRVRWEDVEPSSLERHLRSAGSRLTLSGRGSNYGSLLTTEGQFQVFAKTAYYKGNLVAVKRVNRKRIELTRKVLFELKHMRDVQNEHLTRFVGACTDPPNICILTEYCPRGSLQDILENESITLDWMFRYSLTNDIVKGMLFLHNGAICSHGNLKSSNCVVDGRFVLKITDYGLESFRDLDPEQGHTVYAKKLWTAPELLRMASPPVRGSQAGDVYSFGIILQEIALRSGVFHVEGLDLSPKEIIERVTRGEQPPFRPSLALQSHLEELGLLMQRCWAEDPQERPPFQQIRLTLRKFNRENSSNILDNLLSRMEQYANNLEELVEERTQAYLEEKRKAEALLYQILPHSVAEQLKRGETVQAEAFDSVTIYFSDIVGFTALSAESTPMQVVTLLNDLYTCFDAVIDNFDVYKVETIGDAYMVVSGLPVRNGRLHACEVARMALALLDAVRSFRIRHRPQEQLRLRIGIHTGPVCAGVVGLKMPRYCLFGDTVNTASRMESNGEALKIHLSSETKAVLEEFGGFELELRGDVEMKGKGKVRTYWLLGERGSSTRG
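Compound pre-incubated 30 min at room temperature on GloSensor-loaded HEK293 cells stably carrying hNpr1 and the pGS-40F cGMP biosensor. Stimulation uses hNppA at 0.1 nM final; luminescence is taken at baseline and 20 min post-agonist.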
The depositor's hits bear a star; ? = inconclusive; & = joins results of further samples; [ ] = remark or other dose. % is scaled to controls: 0 for no effect and ±100 for the full control effect; potency is read from the fitted curve at half-maximal effect.

NPR1 antag	structure
5.8%	Cc1noc([C@@H]2CC(F)(F)CN2S(=O)(=O)c2cccc(F)c2)n1
-2.3%	O=S(=O)(c1ccc(F)cc1F)N1CCCC(Cn2c(C3CC3)nc3cccnc32)C1 (stereo not drawn)
-16.5%	C=CCNC(=O)c1coc(COc2ccc3c(c2)C(c2cccc(F)c2)N(C(=O)C2CC2)CC3)n1 (stereo not drawn)
0.0%	O=C(N[C@@H]1COCC[C@H]1OCc1ccccn1)c1cnc(C2CC2)nc1
-17.5%	CCn1cc(S(=O)(=O)NCC2Cn3cccc3C(=O)N2C)cn1 (stereo not drawn)
-2.3%	O=C(NC1CCCCCC1)C1CCN(C(=O)c2ncn3c2COC(c2ccccc2)C3)CC1 (stereo not drawn)
-0.4%	CCN1CC2(CCN(Cc3cc4c(cc3OC)OCCCO4)CC2)OC1=O
10µM*	Cc1ccc(NC(=O)C2CCN(c3cc(C(F)(F)F)ncn3)CC2)cc1Cl
22.6%&1.4%[70.6 µM]	CN(Cc1cccc2ccccc12)Cc1cccn1C
3.8%	CC(C)CN1C(=O)c2cccn2CC1CNC(=O)CC1CCCC1 (stereo not drawn)
?	CN1CCCCCC(O)c2cc(C(=O)NC3CCN(Cc4ccccc4)CC3)ccc21 (stereo not drawn)
0.8%	O=C1CN(Cc2ccc(-c3cc(F)cc(F)c3)cc2)CCN1c1cc(Cl)ncn1
6.2%	Cc1cc(C)n(Cc2cc(C(=O)N3C[C@H]4CC[C@H]3C4)n[nH]2)n1
7.6%	Cc1noc(C)c1[S+](=O)([O-])N1CCC2(CC1)C(=NC1CCCCC1)NC(=O)N2c1cccnc1
3.0%	CC(CO)NS(=O)(=O)c1cccc(C(=O)NCCc2ncnn2C)c1 (stereo not drawn)
-0.7%	CC(=O)N1CCC(Cc2ccc(C(=O)NC3CC3)cc2)CC1
-4.7%	COc1cc(NC(=O)c2ccc(Cn3ccn4nc5c(c4c3=O)CCCC5)cc2)cc(OC)c1OC
-20.1%	CSc1cccc(NC(=O)N2CCC(c3cc(-c4cccc(C)c4)n[nH]3)CC2)c1
-11.7%	O=C(Nc1cccc(F)c1)N1C[C@@H]2C[C@H](C1)c1c(-c3ccc4ccccc4c3)ccc(=O)n1C2
-1.6%	COc1ccc(S(=O)(=O)N2CCC3(CC2)CC(CC(=O)NC2CC2)CCO3)cc1 (stereo not drawn)
0.7%	O=C(C1CCCC1)N1CC2CC(C1)[C@H]1CCCC(=O)N1C2 (stereo partly drawn)
-4.2%	O=c1c2c3c(nn2ccn1Cc1cccc(C(F)(F)F)c1)CCCC3
3.0%	Cc1ccc(C(=O)N2C[C@@H](CO)[C@H](c3ccccn3)C2)c(=O)[nH]1
0.6%	O=C(c1ccccc1)N1CCC(N(Cc2cccnc2)C2CCOCC2)CC1
2.24µM*	CCOc1ccc(C(=O)N2CCN(c3cc(-c4ccc(Cl)cc4)[nH]n3)CC2)cc1OCC
-3.7%	CCc1cccc(NC(=O)CC2CCCN(c3cn[nH]c(=O)c3)C2)c1 (stereo not drawn)
-1.7%	Cn1nccc1C(=O)N1CCCN(S(C)(=O)=O)c2ccccc21
7.2%	Cc1ccccc1CNC(=O)C1CCCN(C(=O)c2ccccc2)CCC(=O)NCC1 (stereo not drawn)
4.9%	O=c1ccc(NS(=O)(=O)c2ccccc2)c2n1C[C@H]1C[C@@H]2CN(S(=O)(=O)c2ccccc2)C1
-1.9%	Cc1ccc(CNC(=O)c2ccc3c(c2)N(C)C2CCCN2C3=O)cc1 (stereo not drawn)
1.3%	Cc1ccc(NC(=O)Cn2nc3n(c2=O)CCCCC3)cc1
-1.1%	COc1cccc(C(=O)N2CCC(N3C[C@H](O)C[C@H]3C(=O)NC3CCCCC3)CC2)c1C
1.4%	COCCN1CCCC(c2[nH]ccc2C(=O)N2CCN(c3ccccc3)CC2)C1 (stereo not drawn)
-1.5%	CN1CCC(NC(=O)C2(CCO)CCN(Cc3ccccc3)C2)CC1 (stereo not drawn)
?	Cn1nccc1CN1CCCC2(COc3ccccc3C(=O)N2)C1 (stereo not drawn)
-1.1%	COc1ccc(NC(=O)C2Cn3cccc3C(=O)N2CC(C)C)cc1 (stereo not drawn)

A different layout for some results above.
CCOc1ccc(C(=O)N2CCN(c3cc(-c4ccc(Cl)cc4)[nH]n3)CC2)cc1OCC
  NPR1 antag: 2.24µM*

CCc1cccc(NC(=O)CC2CCCN(c3cn[nH]c(=O)c3)C2)c1 (stereo not drawn)
  NPR1 antag: -3.7%

Cn1nccc1C(=O)N1CCCN(S(C)(=O)=O)c2ccccc21
  NPR1 antag: -1.7%

Cc1ccccc1CNC(=O)C1CCCN(C(=O)c2ccccc2)CCC(=O)NCC1 (stereo not drawn)
  NPR1 antag: 7.2%

The results go on.
NPR1 antag	structure
2.1%	CNC(=O)N1CCC(C2CCN(C(=O)Cc3c(F)cccc3Cl)C2)CC1 (stereo not drawn)
-1.2%[70.6 µM]	COc1ccc(Nc2nc(-c3c(C)noc3C)cc3cc(CN(C)C)oc23)cn1
-2.5%	COCCN1CC2(CCCN(C(=O)Nc3ccc4c(c3)OCO4)C2)CCC1=O (stereo not drawn)
-11.3%	CN1C(=O)c2cccn2CC1C(=O)NCc1ccc(F)cc1 (stereo not drawn)
2.1%	NC(=O)c1cc[nH]c1C1CCCN(S(=O)(=O)c2cnc[nH]2)C1 (stereo not drawn)
0.0%	O=C(Nc1ccc(=O)n2c1[C@@H]1C[C@@H](CN(C(=O)Nc3ccc(F)cc3)C1)C2)NC1CCCCC1
1.3%	CCC(c1cccs1)N1C(=O)[C@H]2CN(S(=O)(=O)c3ccc(F)cc3F)C[C@H]2C1=O (stereo partly drawn)
-1.1%	CNC(=O)CCC1CCN(C(=O)c2ccccc2)CC1
-4.5%	COc1ccc(OC)c(NC(=O)CCC[C@@H]2[C@H]3CCCN4CCC[C@@H](CN2C)[C@@H]34)c1
-1.1%	COc1ccccc1CN1CCc2nc(N3CCN(C)CC3)[nH]c(=O)c2CC1
5.2%	CCCc1ncncc1C(=O)N1CCc2onc(-c3ccccc3F)c2C1
-12.4%	COc1cccc(CCC(=O)N2CCC(N3CC4CC(C3)[C@H]3CCCC(=O)N3C4)CC2)c1 (stereo partly drawn)
-2.7%	O=C([C@@H]1C[C@H](F)CN1S(=O)(=O)c1cccc(Cl)c1)N1CCCCC1
1.9%	O=C(c1cccc2nccnc12)N1CCC2(CC1)Nc1ccccc1NC2=O
2.3%[70.6 µM]	Fc1ccc(CN2CCOC[C@H](Oc3ccccc3)C2)cc1
?	OC1CC(c2cc(NCCc3nc(Cc4ccccc4)no3)ncn2)C1 (stereo not drawn)
-0.3%[70.6 µM]	Cc1nc2n(c1C(=O)NCc1cccs1)CCC(Nc1ccccc1)C2 (stereo not drawn)
5.9%	Cc1noc(C)c1CC(=O)N[C@@H]1CN(C2CCOCC2)C[C@H]1CN(C)C
2.7%	Cc1cnc(C(=O)NC2C[C@H]3CC[C@@H](C2)N3C(=O)CCc2c[nH]c3ccccc23)cn1 (stereo partly drawn)
4.9%	O=C(c1cn(CCC2CCCCN2)nn1)N1CCc2nc[nH]c(=O)c2CC1 (stereo not drawn)
-10.6%	O=C(O)[C@@H]1CN(Cc2ccccc2)C[C@@H]1C(=O)N1CCOCC1
-2.5%	O=C(c1ccsc1)N1CCCn2cc(-c3ccccc3)nc21
-3.2%	CCCCN(C)C(=O)Cn1ccn2nc(-c3ccccc3)c(CO)c2c1=O
1.2%	Cc1cnc(C2CC2)n1C1CCCN(C(=O)c2nn(C)c3ccccc23)C1 (stereo not drawn)
4.8%	O=C(NC1CCc2n[nH]c(=O)n2CC1)c1ccc2ccccc2n1 (stereo not drawn)
-1.3%	COc1ccc(C(=O)N2CCC3(CC2)N(C)C(=O)CS3(=O)=O)c(OC)c1
-10.8%	COc1cccc(C(=O)N2CC3CC(C2)[C@H]2CCCC(=O)N2C3)c1 (stereo partly drawn)
-18.6%	Cc1noc(-c2ccccc2Cl)c1C(=O)NCc1cccc(F)c1F
-9.5%	COc1ccccc1CCC(=O)N1CCC2(CC1)CC(O)CCO2 (stereo not drawn)
-2.2%	O=C(CC(F)(F)F)N1CCC(c2noc(-c3cccnc3)n2)C1 (stereo not drawn)
-24.2%[70.6 µM]	COc1ccc(C(=O)N2CCCn3nc(C)c(-c4ccccc4Oc4ccccc4)c32)cn1
-11.1%	CC(=O)N1CCC(Oc2ccccc2)C1 (stereo not drawn)
4.2%	Cc1c(CN2C[C@@H](CN(C)CCO)[C@@H](CO)C2)[nH]c2c(Cl)cccc12
-17.3%[70.6 µM]	Cc1ccccc1-c1[nH]nc2ncc(-c3c(C)noc3C)nc12
4.3%[70.6 µM]	O=C(NC[C@H]1O[C@@H](CC(=O)N2CCc3ccccc32)[C@H](O)[C@@H]1O)c1ccco1
-2.4%[70.6 µM]	NC1(Cc2cc(CN3CCN(c4ccccc4)CC3)on2)COC1
-30.4%[70.6 µM]	COc1ccc(-c2cnc3[nH]cc(CC(=O)Nc4cccc(F)c4)c3c2)cc1
0.0%	Cc1ccc(C2Cn3nnc(-c4noc(-c5ccco5)n4)c3CO2)cc1 (stereo not drawn)
-2.5%[70.6 µM]	COc1cccc(N2C(=O)OCC23CCN(CCCc2ccccc2)C3)c1 (stereo not drawn)
-14.8%	Cc1ccc(C)c(S(=O)(=O)N2CCCC(CO)(Cc3cccc(Cl)c3)C2)c1 (stereo not drawn)
3.9%	Cc1cc(C)n(CCc2c(-c3ccccc3)ncn2C(C)CCCC(C)(C)O)n1 (stereo not drawn)
0.0%	Cc1cccc(NC(=O)N2C[C@@H](Oc3cccnc3)C[C@@H]2C(=O)N2CCOCC2)c1
0.8%	COCCc1noc(CNC(=O)c2ccc(-c3ccccc3Cl)o2)n1
6.4%[70.6 µM]	O=C(O)C[C@@H]1CCN(C(=O)C2CCCCC2)C[C@@H]1CCN1CCC(C(=O)O)CC1
-2.6%[70.6 µM]	COc1ccccc1N1CCCc2ncc(C(=O)N3CC[S+](=O)([O-])CC3)cc21
-2.5%	CN(CC1CCOCC1)C(=O)Nc1ccccc1Br
1.7%	CCn1nccc1C(=O)N1CCC(N2C(=O)[C@H](OCCOC)[C@@H]2c2ccncc2)CC1
-5.1%	O=C(NC1CCN(c2cc(-c3ccccc3)[nH]n2)CC1)c1cc(F)ccc1Cl
4.5%	CCN(C(=O)c1ccc(-n2ccnc2-c2nc[nH]c2C)cc1)c1ccccc1
8.5%	CNC(=O)[C@@H]1C[C@H](Oc2cccnc2)CN1C(=O)c1ccc(Cn2nc(C)cc2C)o1
5.6%	Cc1ncsc1C(=O)N1CCC2(CC1)OC(=O)N(Cc1ncccn1)C2(C)c1ccccc1 (stereo not drawn)
?	c1ccc2cc(-c3nc(C4CCOC4)no3)ncc2c1 (stereo not drawn)
-7.6%	COCC(=O)Nc1ccc2c(c1)CN(Cc1ccccc1F)C(=O)C(C)O2 (stereo not drawn)
-8.1%[70.6 µM]	COc1cccc(Nc2ccc3c(n2)C(C)(C(=O)NCCc2ccccn2)CN(C)C3)c1 (stereo not drawn)
-13.3%[70.6 µM]	Cc1ccccc1-c1cc(C(=O)NCc2cnn(C)c2)c2c(c1)N(C)CCO2
0.8%[70.6 µM]	COc1ccc(CN2Cc3[nH]nc(-c4cccnc4OC)c3CC2=O)cc1
0.9%[70.6 µM]	Cc1ccc(-c2cn3c(n2)CO[C@@H](CNC(=O)c2ccccc2)C3)cc1
-0.6%[70.6 µM]	Fc1ccccc1CNC1(Cc2cc(COc3ccccc3)on2)COC1
-4.4%	O=C(CCCc1ccccc1)NCC(=O)N1CCCCCCNC(=O)CC1c1ccccc1 (stereo not drawn)
?	O=C(Cc1c[nH]c2ncc(-c3cccc(OC(F)(F)F)c3)cc12)NCc1cccnc1

The final 3 compounds of the part before lead into the next.
NPR1 antag	structure
-0.6%[70.6 µM]	Fc1ccccc1CNC1(Cc2cc(COc3ccccc3)on2)COC1
-4.4%	O=C(CCCc1ccccc1)NCC(=O)N1CCCCCCNC(=O)CC1c1ccccc1 (stereo not drawn)
?	O=C(Cc1c[nH]c2ncc(-c3cccc(OC(F)(F)F)c3)cc12)NCc1cccnc1
-11.9%	O=C(NCCSc1ccccc1)[C@H]1CNC[C@@H](C(=O)N2CCOCC2)C1
1.7%[70.6 µM]	CC(C)(C)c1cnc([C@@H]2COCCN2CC2CC2)[nH]1
0.0%	CC(O)c1cc2n(n1)CCN(C(=O)Cc1cc3c(cc1Cl)OCCO3)C2 (stereo not drawn)
-2.0%	CN1[C@@H](CCC(=O)NCc2cccs2)CNC(=O)[C@@H]2[C@H]1CCN2Cc1nc2ccccc2n1C
2.51µM*	O=C(c1ccccc1Br)N1CCN(c2cc(-c3ccc(Cl)cc3)[nH]n2)CC1
2.4%	Cc1cc(N2CCC3(CC2)NC(=O)CC3C(=O)O)nc(N)n1 (stereo not drawn)
-1.3%	COCc1cc(=O)n(CC(=O)Nc2cc(C(F)(F)F)ccc2Cl)c(N2CCOCC2)n1
-4.0%[70.6 µM]	COCc1cc(CC2(NCc3ccc(N(C)C)cc3)COC2)no1
2.6%[70.6 µM]	O=C(O)C[C@@H]1CCN(C(=O)NC2CCCCC2)C[C@@H]1CCN1CCOCC1
4.8%	CCOc1ccc(NC(=O)N2CCCC(Cn3cnc4cccnc43)C2)cc1 (stereo not drawn)
-0.7%	CCC1(C(=O)NCCCN2CCCC2=O)CCCCC(=O)N1 (stereo not drawn)

An excerpt. The share of hits here may be higher or lower than overall.
